TRPV1 PAM: potentiators of human vanilloid receptor 1 (TRPV1); Q8NER1; potentiation, % at 8.33 µM; 320,000 tested, 0.02% active; TRPV1-expressing cells, Fluo-8 calcium influx, capsaicin EC20 potentiation; host cell line not named in the record; control for the full effect not named in the record; AID 540277; active means potentiation above 80%; inconclusive means 30% to 80%; inactive means below 30%; also: 0% is about no effect
Target sequence (Q8NER1 whole entry, looked up): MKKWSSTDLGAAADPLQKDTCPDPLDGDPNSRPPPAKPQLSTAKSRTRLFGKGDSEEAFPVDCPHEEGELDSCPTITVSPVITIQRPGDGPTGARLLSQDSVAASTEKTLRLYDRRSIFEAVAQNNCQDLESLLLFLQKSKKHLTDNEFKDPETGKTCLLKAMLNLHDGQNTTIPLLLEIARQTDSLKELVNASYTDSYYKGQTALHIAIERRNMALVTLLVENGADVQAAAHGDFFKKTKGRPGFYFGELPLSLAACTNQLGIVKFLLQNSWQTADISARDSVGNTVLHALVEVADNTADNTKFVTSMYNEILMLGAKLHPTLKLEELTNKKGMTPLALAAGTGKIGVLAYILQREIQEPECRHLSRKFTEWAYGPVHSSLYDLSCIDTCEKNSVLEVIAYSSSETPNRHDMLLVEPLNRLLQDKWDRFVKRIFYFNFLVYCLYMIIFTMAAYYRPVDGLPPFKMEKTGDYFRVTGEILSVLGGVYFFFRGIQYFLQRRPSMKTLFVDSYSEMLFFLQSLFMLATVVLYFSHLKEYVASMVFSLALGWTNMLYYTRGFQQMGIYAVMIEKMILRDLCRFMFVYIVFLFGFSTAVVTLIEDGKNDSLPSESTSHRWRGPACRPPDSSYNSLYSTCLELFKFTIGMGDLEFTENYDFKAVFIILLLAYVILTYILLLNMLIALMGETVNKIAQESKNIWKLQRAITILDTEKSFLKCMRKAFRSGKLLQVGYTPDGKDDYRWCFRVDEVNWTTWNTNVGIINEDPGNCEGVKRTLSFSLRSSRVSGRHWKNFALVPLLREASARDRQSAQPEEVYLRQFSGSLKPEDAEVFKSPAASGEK
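Cells expressing TRPV1 were dye-loaded with Fluo-8 and read kinetically: 10 s baseline, 3 min after compound (agonist portion), then 2 min after EC20 capsaicin (allosteric enhancer portion). Calcium-bound dye fluorescence at 480/520 nm.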
Sfp PPTase inh: Sfp phosphopantetheinyl transferase inhibition; AID 1490; Biochemical Sfp PPTase activity, qHTS; Potency, µM, for inactives: max response, negative = inhibition, most hits filed as inhibitors; Q9F4F7; 310,000 tested, 3.5% active; active = well fitted inhibition curve with a large enough effect; inconclusive = small, poorly fitted or top-dose-only effect, or another doubt; inactive = no such curve, though single readings can be large or run the other way;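 also: the enzyme is Sfp with the accession as filed and its product quenches rhodamine fluorescence; potency is read from the fitted curve at half-maximal effect; 0% = enzyme reaction without inhibitor and -100% = no enzyme wells; top concentration of the series not given in the record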
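Fluorescence-quenching assay: 15 nM Sfp-PPTase preincubated 15 min at room temperature with compound, then 5 uM rhodamine-CoA and 12.5 uM BHQ-2-labelled YbbR peptide added. Fluorescence (ex 525/em 598 nm) read at start and after 30 min; difference gives rate.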
CtBP-E1A inh: CtBP/E1A binding inhibition. activity change, % (no concentration beside the values). AID 651724. AlphaScreen GST-E1A/His-CtBP binding, 1536-well; stronger effect = lower value; control for the full effect not named in the record. 340,000 tested, 0.49% active; in the data active means activity change below about -65%; inconclusive means about -30% to -65%; inactive means above about -30%; also: % is scaled to controls: 0 for no effect and ±100 for the full control effect; compound concentration not given in the record
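AlphaScreen with 125 nM GST-E1A and 125 nM His-CtBP (5X stocks) in Tris pH 8.0, 300 mM NaCl, BSA, Tween 20, TCEP. Compounds preincubated 2 h at 37 deg C, then glutathione donor/nickel acceptor beads added for 1 h at 37 deg C in dark.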
ClpP mod: qHTS Assay for Activators of ClpP; AID 651965, 2013; purified B. subtilis ClpP, FRET peptide cleavage, 20 min; 340,000 tested, 1.9% active; Potency, µM (titrated, usually from 57.5 µM), inactives show at the highest dose activity change, negative = active; ATP-dependent Clp protease proteolytic subunit (Bacillus subtilis (strain 168)), P80244; active = well fitted falling curve with a large enough effect; inconclusive = small, poorly fitted or top-dose-only effect; inactive = no such curve, though single readings can be large or run the other way; also: potency is read from the fitted curve at half-maximal effect; the source files actives as falling curves though it sought activators and does not explain the sign; nearly all actives have a fitted effect of over 65% in size; many hits overshoot -100%
Target sequence (P80244 whole entry, looked up): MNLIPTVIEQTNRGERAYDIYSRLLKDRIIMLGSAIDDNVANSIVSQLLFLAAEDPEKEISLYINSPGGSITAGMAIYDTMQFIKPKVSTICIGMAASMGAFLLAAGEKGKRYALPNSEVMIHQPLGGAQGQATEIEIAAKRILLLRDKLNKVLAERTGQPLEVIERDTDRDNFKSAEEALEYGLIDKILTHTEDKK
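FRET quenching reversal measured ClpP activation: 10 microg/mL B. subtilis ClpP at pH 8 with the FRET-FV decapeptide, read at 430 nm after 320 nm excitation. The 20-min minus 0-min signal was scaled between DMSO/no-enzyme wells and ADEP (5.8 microM final).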
Menin MLL FP FL: inhibitors of human menin-MLL interaction, wild-type MLL peptide. Fluorescence polarization, fluorescein-MLL peptide displacement from menin. FP activity change, % at 61.4 µM. AID 1766. 290,000 tested, under 10 active; inconclusive = falling polarisation curve, or a change in total fluorescence; inactive = total fluorescence flat and polarisation flat or rising; no compound was filed as active; the % refers to the polarisation; negative = inhibition;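 also: % of control where 0% means no effect; inhibitors lower the polarisation; unlabelled MLL peptide was the positive control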
gsp antagonist: antagonists of gsp mutant (McCune-Albright syndrome). gsp-mutant cells, cAMP HTRF, 30 min; control for the full effect not named in the record. Potency, µM (doses to about 76.9 µM), for the others: at the top dose activity change, negative = inhibition, most hits filed as inhibitors. 340,000 tested, 0.4% active; active = falling curve of any shape with a large fitted effect; inconclusive = falling curve, mostly with a smaller effect; inactive = flat or rising curve; cell line not stated here;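 also: intracellular cAMP measured with PDE inhibitor Ro 20-1724 present during compound exposure; potency is read from the fitted curve at half-maximal effect; % is scaled to controls: 0 for no effect and ±100 for the full control effect; nearly all actives have a fitted effect of over 65% in size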
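HTRF cAMP measurement after 30 min RT detection following 30 min, 37C compound treatment alongside […] (added as 300 uM solution) in G418-selected cells seeded at 2000/well and grown 16–24 h.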
gsp ag: gsp mutant agonism; 340,000 tested, 0.13% active; Potency, µM (top dose mostly 76.9 µM), without a hit: at the highest dose activation (cAMP increase), most hits filed as activators; gsp mutant cells, cAMP HTRF, 30 min; control for the full effect not named in the record; active = well fitted activation curve with a large enough effect; inconclusive = small, poorly fitted or top-dose-only effect, or another doubt; inactive = no such curve, though single readings can be large or run the other way; cell line not stated here;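 also: phosphodiesterase inhibitor Ro 20-1724 added with compounds to block cAMP breakdown; potency is read from the fitted curve at half-maximal effect; nearly all actives have a fitted effect of over 60% in size; about a fifth of the inactives were tested at one dose only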
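Cells stably selected in G418 were plated at 2000/well, grown 16-24 hr, then given compounds in DMSO with the PDE inhibitor […] (300 uM solution added) for 30 min at 37C; cAMP was read by HTRF.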
Numbers without * were called inactive; u = inconclusive; x = no result given; [ ] = another dose, or the depositor's remark. No enrichment for hits. About 5.3% of those tested had a hit in this group.

SMILES	TRPV1 PAM	Sfp PPTase inh	CtBP-E1A inh	ClpP mod	Menin MLL FP FL	gsp antagonist	gsp ag
CC(C)=CCCC1(C)C=Cc2c(c(C)cc3c2[nH]c2cc(O)ccc23)O1 (configuration not stated)	-15	32%[activator]	-7	-2.8%	2.5	-8%	x
Cc1ccc(-c2noc(CCC(=O)Nc3cccc(C(=O)NC4CC4)c3)n2)cc1	x	x	-2	0.2%	x	x	0%
CCOc1ccc(N(CC(=O)NC2CCCCC2)S(=O)(=O)c2ccccc2)cc1	12	18%	0	x	-2.8	-15%	3%[15.4 µM]
CS(=O)(=O)N1CC(C(=O)NN)Oc2ccc(Cl)cc21 (configuration not stated)	u	12%	1	-1.4%	-0.5	-7%	2%
CC(NCc1ccc(-c2ccccc2)cc1)C(O)c1ccccc1 (configuration not stated)	-7	u	0	-0.6%	x	9%	-12%
COc1ccc(C)cc1NC(=O)Cn1cnnn1	5	0%	-10	-1.0%	-2.9	7%	-18%
N=c1c(-c2nc3ccccc3[nH]2)cc(C(=O)c2ccco2)nn1-c1ccccc1	-1	0%	-5	0.7%	-0.7	12%	0%
CCc1nnc(NC(=O)C2=CCN(S(=O)(=O)c3ccccc3)CC2)s1	21	32%[activator]	x	-3.5%	-4.5	4%	-12%

Record cards (already shown). Order of values: TRPV1 PAM | Sfp PPTase inh | CtBP-E1A inh | ClpP mod | Menin MLL FP FL | gsp antagonist | gsp ag
Record of CC(NCc1ccc(-c2ccccc2)cc1)C(O)c1ccccc1 (configuration not stated) : -7 | u | 0 | -0.6% | x | 9% | -12%
Record of CC(C)=CCCC1(C)C=Cc2c(c(C)cc3c2[nH]c2cc(O)ccc23)O1 (configuration not stated) : -15 | 32%[activator] | -7 | -2.8% | 2.5 | -8% | x

Other compounds:
SMILES	TRPV1 PAM	Sfp PPTase inh	CtBP-E1A inh	ClpP mod	Menin MLL FP FL	gsp antagonist	gsp ag
COC(=O)[C@H](C)NC(=O)COc1ccccc1	11	1%	3	0.2%	0.2	6%	-18%
C=CCSc1nnc(-c2ccc(Cl)cc2Cl)o1	-14	-2%	28	1.5%	1.7	-13%	-29%
O=C(COc1ccccc1F)NC1CC1	27	33%[activator]	9	-0.7%	1.5	12%	6%
O=C(c1ccc2[nH]c3c(c2c1)CCCC3)N1CCN(c2ccc(F)cc2)CC1	-4	-5%	-3	-6.1%	3.3	-5%	0%[15.4 µM]
O=C1NC(Cc2ccccc2)c2nc3ccccc3c(=O)n2-c2cc3ccccc3cc21 (configuration not stated)	x	x	-6	u	x	x	15%
CC(C(=O)NC1CCCC1)N(Cc1ccc2c(c1)OCO2)C(=O)c1snc(C(N)=O)c1N (configuration not stated)	2	9%	3	-16%	0.5	-1%	u
O=C(CNC(=O)c1cccs1)c1ccc(F)cc1	0	-3%	10	-0.9%	-2.8	4%	1%
C/C(=N/NC(=O)C(O)(c1ccccc1)c1ccccc1)c1ccc([N+](=O)[O-])o1	-17	-14%	2	1.2%	1.2	6%	-3%[15.4 µM]

Looked up above.
CtBP-E1A inh result of CC(C(=O)NC1CCCC1)N(Cc1ccc2c(c1)OCO2)C(=O)c1snc(C(N)=O)c1N (configuration not stated) stands at 3
gsp ag result of O=C1NC(Cc2ccccc2)c2nc3ccccc3c(=O)n2-c2cc3ccccc3cc21 (configuration not stated) stands at 15%

Going on with the list:
SMILES	TRPV1 PAM	Sfp PPTase inh	CtBP-E1A inh	ClpP mod	Menin MLL FP FL	gsp antagonist	gsp ag
COCc1c(C(=O)OCc2nc(N)nc(Nc3ccccc3C)n2)oc2ccccc12	29	11%	0	-14%	1.6	11%	3%
CC(=O)O/N=C1\C(=O)N(Cc2ccc(C)cc2)c2ccccc21	u	6%	-18	x	-4.2	x	2%[15.4 µM]
COc1ccc(C(=O)CC(=O)C(=O)Nc2ccc(C)c(C)c2)cc1	1	3%	0	x	1.3	-4%	-28%[15.4 µM]
C=CCN(CC=C)C(=S)Nc1ccc(OC)c(OC)c1	-8	u	x	-0.9%	-1.9	8%	-57%[inhibitor]
COc1cccc(Nc2nc3cc(C)ccc3cc2C)c1	x	x	2	-20%	x	x	u
CCSc1ncc(/C=N/Nc2ccccc2)n1C	7	-1%	-16	1.7%	-1.3	-2%	-34%[inhibitor]
COC(=O)C1=C(N)OC2=C(C(=O)CCC2)C1c1ccccc1OC (configuration not stated)	16	-3%	3	x	6.3	3%	-23%[15.4 µM]
[N-]=[N+]=NC(c1ccccc1)c1nc2ccccc2[nH]c1=O (configuration not stated)	-1	-1%	-13	-0.8%	-11	-7%	-1%[15.4 µM]

Remaining list, next part
SMILES	TRPV1 PAM	Sfp PPTase inh	CtBP-E1A inh	ClpP mod	Menin MLL FP FL	gsp antagonist	gsp ag
C=CCC1(CC=C)CCCN1C(=O)c1ccc2oc(CCCC)nc2c1	x	x	-5	-2.5%	x	x	2%
O=C(N/N=C1\CC2CC=CC12)c1ccc(O)cc1 (configuration not stated)	-11	-15%	-10	x	0.3	3%	u
Cc1ccc(C)c(C(=O)COC(=O)c2nn(C)c(=O)c3ccccc23)c1	4	x	-4	-1.9%	x	-18%	2%
CCCCN(CCCC)C(=O)CN(C)S(=O)(=O)c1ccc2c(c1)n(C)c(=O)c(=O)n2C	-16	6%	7	u	-0.9	15%	15%
Cc1ccc(C)c2nc(SCC(=O)N3CCCc4ccccc43)c(C#N)cc12	5	-24%	6	-3.7%	-1.2	-7%	u
Cc1ccc(S(=O)(=O)/N=C(/Nc2nc(C)cs2)c2ccccc2)cc1	x	x	x	1.7%	x	-18%	-25%
COc1ccc(NC(=O)/C=C/c2ccc(S(=O)(=O)N3CCOCC3)cc2)cc1	-6	x	2	1.1%	x	7%	9%
CCOC(=O)c1cc(-c2ccccc2)sc1NC(=O)CN1C(=O)NC(CC)(c2ccccc2)C1=O (configuration not stated)	-2	-5%	-4	-28%	4.8	-5%	19%

Additional compounds
SMILES	TRPV1 PAM	Sfp PPTase inh	CtBP-E1A inh	ClpP mod	Menin MLL FP FL	gsp antagonist	gsp ag
Cc1nn2c(-c3ccc(F)cc3)ccnc2c1Br	-11	10%	21	x	3.0	6%	24%[15.4 µM]
Cc1cc(C)n2nc(SCC(=O)NC(=O)NCc3ccco3)nc2n1	-6	u	-11	x	1.3	0%	13%[15.4 µM]
Cc1cc2nc(-c3ccc[nH]c3=O)n(Cc3ccc(F)cc3)c2cc1C	-5	-7%	-6	x	-1.2	-5%	u
COc1ccc2c(c1)c(C(=O)CN1CCCCC1)c(C)n2C	x	x	3	0.7%	x	-4%	-4%[15.4 µM]
Cc1cccc(NC(=O)c2nc[nH]c2C(=O)Nc2ccccc2[N+](=O)[O-])c1	-2	2%	x	0.8%	3.6	6%	11%
COc1cc(OC)c(N(C)S(=O)(=O)c2cccc(C(=O)Nc3nccs3)c2)cc1Cl	x	x	-26	x	x	-29%	-3%
COC(=O)NC(C)N1C(=O)C2C3C=CC(C3)C2C1=O (configuration not stated)	28	15%	6	x	3.3	0%	9%
O=C(/C=C/c1ccccn1)c1cc(Cl)cc(Cl)c1O	8	-4%	-17	-23%	4.4	-8%	15%

The listing continues:
SMILES	TRPV1 PAM	Sfp PPTase inh	CtBP-E1A inh	ClpP mod	Menin MLL FP FL	gsp antagonist	gsp ag
COc1ccc(NS(=O)(=O)c2cc(NC(=O)COc3ccccc3)ccc2N2CCOCC2)cc1	x	x	-1	x	x	-3%	12%
COc1cccc(/C=N/Nc2ccc(S(=O)(=O)Nc3ccccc3C(=O)O)cc2[N+](=O)[O-])c1O	x	x	-15	-30%	x	2%	1%
COc1cccc(/C=N/NC(=O)CN(CCc2ccccc2)S(=O)(=O)c2ccc(NC(C)=O)cc2)c1	15	4%	-10	-5.7%	-0.3	4%	-10%
Cc1ccc(-n2c(N)c(C(=O)NCc3ccco3)sc2=S)cc1	15	u	-9	-0.7%	0.0	-11%	-2%
CNC(=S)Nc1cccc(Cl)c1C	-1	19%	0	x	-2.1	1%	-37%
COc1cc(S(=O)(=O)N2CCOCC2)cc(C(=O)OCC(=O)NCc2ccco2)c1OC	-3	x	6	-18%	x	0%	10%
CCN(CC)CCN1C(=O)C(=O)/C(=C(/O)c2ccc(S(=O)(=O)N3CCOCC3)cc2)C1c1ccccc1 (configuration not stated)	4	16%	-7	x	0.6	1%	8%[15.4 µM]
CN1CCN(c2nc3c(c(=O)n(C)c(=O)n3C)n2Cc2ccc(F)cc2)CC1	5	6%	0	-0.1%	-0.6	-9%	21%
O=C(NCC1COc2ccccc2O1)C1C2C=CC3(CN(Cc4cccs4)C(=O)C13)O2 (configuration not stated)	4	18%	2	-0.9%	1.6	-4%	17%
Cc1[nH]c2ccccc2c1C(=O)COC(=O)c1c(-c2ccccc2Cl)noc1C	-2	9%	1	-12%	7.3	u	27%
Cc1cc(F)ccc1NC(=O)CCCN(C)S(=O)(=O)c1ccc(F)cc1	-7	13%	-2	-0.4%	3.3	-12%	-4%[15.4 µM]

Gathered by group, those above with a nitro group on carbon (3)
SMILES	TRPV1 PAM	Sfp PPTase inh	CtBP-E1A inh	ClpP mod	Menin MLL FP FL	gsp antagonist	gsp ag
C/C(=N/NC(=O)C(O)(c1ccccc1)c1ccccc1)c1ccc([N+](=O)[O-])o1	-17	-14%	2	1.2%	1.2	6%	-3%[15.4 µM]
Cc1cccc(NC(=O)c2nc[nH]c2C(=O)Nc2ccccc2[N+](=O)[O-])c1	-2	2%	x	0.8%	3.6	6%	11%
COc1cccc(/C=N/Nc2ccc(S(=O)(=O)Nc3ccccc3C(=O)O)cc2[N+](=O)[O-])c1O	x	x	-15	-30%	x	2%	1%

Screens deposited in PubChem BioAssay by National Center for Advancing Translational Sciences (NCATS).
